# Screens deposited in PubChem BioAssay by several laboratories.
# Mtb hypoxia inh = Mtb hypoxia fluorescent reporter inhibition. 0.1% of 300,000 active. AID 1159583. M. tuberculosis hypoxia-regulated fluorescent reporter, fluorescence. fluorescence inhibition, % (concentration not given with the values);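 active = 35 to 45% if threefold the growth effect, above 45% if 1.5-fold the growth effect; inactive = the rest, general growth blockers included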;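 also: wells of about 50 µL received 100 nL stock; 0% = vehicle wells and 100% = reference inhibitor wells; whole bacteria with a GFP reporter of the hypoxia response; strong numbers were not always called active; many hits fall short of the cut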
# BJeLR viability = kills HRASV12-expressing BJeLR cells. BJeLR (HRASV12) viability, CellTiter-Glo ATP luminescence, 48 h; reference of the scale not given here. inhibition, % (concentration not given with the values). 0.17% of 300,000 active. AID 1554;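 active = replicate mean above 50%; inconclusive = above 50% but judged a plate artefact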;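 also: 50 nL library stock added to about 25 µL; numbers are from one replicate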
# Bead autofluor = counter-screen for toxin protease inhibitors: compound fluorescence. 3.1% of 360,000 active. AID 624483. fluorescence intensity (no concentration beside the values). compound autofluorescence counterscreen, microsphere flow cytometry; stronger effect = higher value;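 active = at least 3 SD above the mean of all compounds, about 16000 in these data; inconclusive = too few beads counted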;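 also: 100 nL of 1 mM stock went into each well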
# ugtP null kill = kills S. aureus RN4220 lacking UgtP | S. aureus RN4220 ugtP deletion, OD600 growth, 16 h; some inactives read as strong as hits | growth inhibition, % (no concentration beside the values) | 0.54% of 330,000 active | AID 1259309;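 active = z-score under -3 and OD600 up to 0.15 on both plates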;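 also: plate controls were untreated wells for no effect and antibiotic for full effect; wells of about 80 µL received 100 nL stock; the first replicate is given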
# RN4220 kill = kills Staphylococcus aureus RN4220. S. aureus RN4220 growth, OD600, 16 h. inhibition, % (test concentration not listed). 0.33% of 330,000 active. AID 1259311;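 active = z-score of -3 or lower and OD600 up to 0.18 on both plates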;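 also: plate controls were untreated cells for no effect and reference antibiotic for full effect; stock transfer was 100 nL into about 80 µL; one replicate is shown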
# PrP UTR inh = inhibition of PrP 5' UTR reporter expression | inhibition, % (no concentration beside the values) | 0.35% of 340,000 active | cell-based PrP 5' UTR mRNA reporter, plate reader | AID 488862;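 active = every replicate at 50% or more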;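 also: 0 = median of the neutral control wells; tested in H4 reporter cells; numbers are from one replicate; inactives centre near -14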
# Mtb hypoxia inh growth = further read-out of Mtb hypoxia inh, marked with its call; growth inhibition, %; measured here: M. tuberculosis growth (absorbance);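 0% = vehicle and 100% = reference antibiotic; read after six days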
# Numbers without * were called inactive; ? = inconclusive; . = no result given.
SMILES,Mtb hypoxia inh,Mtb hypoxia inh growth,BJeLR viability,Bead autofluor,ugtP null kill,RN4220 kill,PrP UTR inh
COc1ccc(-c2[nH]n(-c3ccc([N+](=O)[O-])cc3)c(=O)c2C=NCc2ccc(F)cc2)cc1,-2,11,-7,2509,-12,-6.2,-36
COc1ccc(C2CC(=O)C=C(c3ccc4cc[nH]c4c3)C2)cc1 (configuration not stated),6,2,.,.,-14,-0.7,.
CCN(CC)c1ccc(C=Nn2nnnc2N)c(O)c1,5,-2,.,.,-13,5.7,.
c1csc(-c2nnc(N3CCOCC3)c3ccccc23)c1,.,.,-13,3952,-8,1.6,-27
COc1ccc(OCC(=O)Nc2nc3c(s2)CCCC3)cc1,6,-6,1,5220,-12,1.8,-9
COc1ccc(C(=O)NNC(=O)c2ccccc2[N+](=O)[O-])cc1,4,17,-20,2473,-2,17,-47
O=C(c1cccc(C(F)(F)F)c1)C1CCCN(C(=O)CCn2cnnn2)C1 (configuration not stated),3,-1,10,4638,6,3.2,-21
COc1ccc2c(c1)OCC1C2N2C(=O)CN(Cc3ccccc3)C(=O)[C@@]2(C)C1c1ccccc1 (some centres not stated),-3,11,.,.,4,-3.7,.
COC(=O)C1=C(C)N(CCCC(=O)O)C(=O)NC1c1cccc2ccccc12 (configuration not stated),.,.,17,3571,.,.,-35
CCCNC(=O)COC(=O)c1cc2c(=O)n3ccccc3nc2s1,4,-3,0,2963,3,1.2,-36
O=C(COC(=O)C1=Cc2ccccc2OC1)NCc1ccco1,9,3,.,3441,5,4.5,-26
O=C(/C=C/c1ccccn1)c1ccc(Br)cc1O,6,10,.,2418,-5,3.9,-16
CCc1ccc(C(=O)CN2C(=O)NC(C)(c3ccc(C)cc3)C2=O)cc1 (configuration not stated),17,2,2,4643,4,1.8,-16
COc1ccc(CN(C(=O)c2nsc(Cl)c2Cl)C(C(=O)NC2CCCCC2)c2ccc(OC)cc2)cc1 (configuration not stated),3,12,0,13659,-18,-11,-19
CC(=O)NC1(c2ccc(F)cc2)CCN(C(=O)Nc2ccc(F)cc2F)CC1,-3,-6,-6,2781,12,5.7,-24
CCC(C)n1c(SCC(=O)Nc2cc(C(C)(C)C)nn2-c2ccccc2)nc2ccccc2c1=O (configuration not stated),10,4,-15,2621,-4,1.3,-14
COc1cc(/C=C2\C(=O)N(C)C(=S)N2C)ccc1O,4,2,-2,2383,-4,5.8,-21
CC1CCN(S(=O)(=O)c2ccc(C(=O)NNC(=O)C3CC3)cc2)CC1,-5,-3,2,3287,-9,-0.8,-5
Cn1c(=O)c2c(ncn2CC(=O)OCC(=O)Nc2ccc(F)cc2Cl)n(C)c1=O,13,2,.,3910,0,1.8,-15
O=[N+]([O-])c1ccc(N/N=C/c2cccc(O)c2)cc1,.,.,-8,5225,.,.,-48
O=C(COc1ccc(Oc2ccccc2)cc1)NCc1cn2ccccc2n1,3,2,17,4531,-1,1.5,-19
Cc1nn(CC2CC2)c(=O)n1-c1cccc(Cl)c1,-1,1,10,4036,2,4.6,-12
CCC(C)/C=C(C)/C=C/C1=CC2=C(Cl)C(=O)C(C)(OC(C)=O)C(=O)C2=CO1 (configuration not stated),.,.,6,5298,3,-1.0,-1
CCNc1nc(SCC(=O)Nc2ccccc2)nc(N2CCOCC2)n1,13,7,-11,5672,1,0.3,-9
CN(C)S(=O)(=O)N1CCN(c2ccc([N+](=O)[O-])cc2)CC1,4,7,-3,4072,6,2.3,-14

# Continued:
SMILES,Mtb hypoxia inh,Mtb hypoxia inh growth,BJeLR viability,Bead autofluor,ugtP null kill,RN4220 kill,PrP UTR inh
CCc1cccc(CC)c1NC(=O)C1SC(=Nc2ccccc2C)C(c2nc3ccccc3s2)=C1N (configuration not stated),11,15,-6,3952,22,-4.5,-8
COc1ccc(NC(=O)CCNS(=O)(=O)c2ccc3c(c2)CC(C)N3C(=O)C2CC2)cc1 (configuration not stated),-7,0,6,5117,-3,2.4,-5
COc1cc(CC(=O)Nc2ccc(N3CCOCC3)cc2)cc(OC)c1OC,8,-1,6,4958,3,-2.5,-21
Cc1cccc(C)c1NC(=O)CN(C)C(=O)C1CC(=O)N(c2cccc3ccccc23)C1 (configuration not stated),3,-2,.,7859,5,6.5,-8
COc1cccc(-c2nnc(NC(=O)c3cccs3)s2)c1,3,10,3,4476,-3,5.1,-55
CN(C(=O)COC(=O)CNC(=O)c1ccc(C(C)(C)C)cc1)c1c(N)n(Cc2ccccc2)c(=O)[nH]c1=O,1,3,2,.,3,-1.0,-3
COc1ccc(-c2ccc(N(C)C)cc2)cc1[C@H]1[C@@H]2C=CCC[C@@]2(C)C(=O)N1Cc1ccccc1,.,.,2,4014,.,.,-13
CCOc1cc(NC(=O)Nc2ccc(F)cc2)c(OCC)cc1NC(=O)CC,9,3,-7,3397,2,4.4,-40
Cc1ccc(SC(C)C(=O)Nc2ncn[nH]2)cc1 (configuration not stated),20,7,-2,3666,-2,3.6,-2
O=C(CN1CCN(c2ncccn2)CC1)NCc1ccc2c(c1)OCO2,0,6,1,4282,3,4.6,-26
Cc1ccc(NNC(N)=S)cc1Cl,.,.,-1,4979,0,2.0,-2
Cc1ccc(O)c(NC(=O)C2CC(c3ccc(F)cc3)=NO2)c1 (configuration not stated),8,11,-7,8428,-8,4.0,-4
OC(CNC1CCCc2ccccc21)COc1c(Cl)cccc1Cl (configuration not stated),-8,-2,-4,2230,-5,6.6,-5
CC(C)[C@@H]1C=C(C(=O)O)O[C@H](OCCCCO)C1,.,.,3,4021,.,.,-13
CC(=O)Nc1cccc(NC(=O)CSc2nc(=O)n(CCN3CCOCC3)c3c2CCCC3)c1,8,6,0,5133,4,4.0,-35
COc1ccc(S(=O)(=O)NN=Cc2ccccc2F)cc1,-5,-2,.,.,1,0.7,.
CC/C(O)=C1\C(=O)CC(c2ccccc2)CC1=NCCC(=O)O (configuration not stated),7,3,-11,2667,8,3.0,-10
Cc1ccc(C(=O)/C=C/c2cc(C#N)n(C)c2C)cc1,-4,10,-4,3523,0,6.3,-23
O=C(NCCCN1CCOCC1)C1COc2ccccc2O1 (configuration not stated),2,-4,4,16494*,2,3.7,2
CCc1nn(CCCC(=O)N2CCc3ccccc3C2)c(=O)c2cc3occc3n12,5,8,-1,3271,-10,3.9,-7
CC(C)(C)n1nnnc1CN1CCC(NC(=O)NC2CCCCC2)CC1,8,19,5,5827,0,1.3,-1
CCOc1ccc(S(=O)(=O)N2CCC(C(=O)NCc3ccncc3)CC2)cc1Cl,8,6,4,3465,11,1.9,-15
O=C(c1ccc(CSc2ccc(Cl)cc2)cc1)N1CCCC1,-2,11,-2,2527,-10,16,-15
NNC(=O)c1ccc(COc2cccc3ccccc23)o1,3,7,0,.,-2,9.3,-14
COc1ccc(CN2CCOCCOCCOCCOCCOCC2)cc1,17,1,-16,3544,7,1.7,-19

# More entries:
SMILES,Mtb hypoxia inh,Mtb hypoxia inh growth,BJeLR viability,Bead autofluor,ugtP null kill,RN4220 kill,PrP UTR inh
CC(C)CCNC(=O)CCc1nnc(Cc2c[nH]c3ccccc23)o1,1,6,2,2222,-1,3.2,-32
COC(=O)Cc1nc(NC(=O)c2cccs2)sc1C,15,1,-5,3740,8,5.3,-37
COc1ccc(OC)c(S(=O)(=O)Nc2ccc(-c3ccc4nncn4n3)cc2)c1,4,9,16,5856,0,3.0,8
CC(C)(C)NS(=O)(=O)c1ccc(OCC(=O)NCC2CCCO2)cc1 (configuration not stated),11,-1,-3,6458,1,0.7,-17
NS(=O)(=O)c1ccc(CCNCc2cccs2)cc1,-2,-1,2,2477,0,6.3,-7
O=C1CC(=O)N(CCc2ccccc2)C(=O)N1CCc1ccccc1,7,7,-3,22637*,7,8.8,-9
COc1ccc(/C=N/NC(=O)c2ccc(N(C)S(=O)(=O)c3ccccc3)cc2)cc1OC,.,.,-1,2521,.,.,-24
c1cncc(-c2nnc(-c3ccco3)o2)c1,4,-7,-12,12916,6,1.7,-19
O=C(COC(=O)Cc1ccc(Br)cc1)NCc1cccs1,6,7,.,3990,2,1.8,-12
Cc1ccc(OCC(=O)Nc2ccc(S(=O)(=O)N3CCCCC3)cc2)c([N+](=O)[O-])n1,14,10,-3,4786,-6,3.2,0
Cc1cc(C)n(-c2ccc(C(=O)OCC(=O)NCc3ccco3)cc2)n1,13,0,-6,4198,8,-1.1,-6
COc1ccc(Cl)cc1C(=O)NC(C)C,0,-2,-3,2348,2,5.0,-11
Cc1ccc(C(=O)Nc2nnc(-c3ccc(C(C)(C)C)cc3)s2)cc1,.,.,5,4313,8,2.1,-12
c1ccc(-n2cc(CN3CCC(N4CCOCC4)CC3)c(-c3ccc4c(c3)OCO4)n2)cc1,14,10,12,2093,4,1.9,-14
O=C(Nc1ccc(F)cc1F)c1ccc(S(=O)(=O)N2CCCCC2)cc1,9,-15,2,6268,2,-1.2,-2
Cc1cc(NC(=O)CSc2nnc(C)o2)no1,3,4,9,6307,6,4.6,-15
CCOC(=O)c1cccc(NC(=O)Cn2cnc3c2c(=O)n(C)c(=O)n3C)c1,5,11,8,20236*,3,2.8,-17
COc1cccc(COC(=O)C2CCN(S(=O)(=O)c3ccc(Cl)cc3)CC2)c1OC,4,8,4,?,15,-5.1,-23
Clc1cccc(Cl)c1NC1=NCCN1,0,3,1,.,-7,0.6,.
N#CCC(=O)N1CC2(CC(c3cccc(NC(=O)COc4ccc(Cl)cc4)c3)=NO2)C[C@@H]1C(N)=O (some centres not stated),.,.,-7,3749,.,.,-4
Cc1cccc(OCC(=O)NC(C)C(=O)NN=Cc2c(OCc3ccccc3)ccc3ccccc23)c1 (configuration not stated),4,3,.,.,-2,-3.7,.
CCN1CCN(c2ccc(NC(=O)C(C)C)cc2Cl)CC1,-6,4,-1,2355,-5,0.1,-5
COC(=O)NN=C1CC(=NNC(=O)OC)c2ccccc21,0,4,.,.,6,6.0,.
CCOC(=O)N1CCN(c2c(Nc3cc(C)[nH]n3)c(=O)c2=O)CC1,8,8,-3,4173,12,1.2,10
CC(C)c1cc(O)c(-c2ccccc2)c(=O)n1-c1ccc(Cl)cc1,14,6,0,3397,4,-1.0,-18

# 6 of these compounds in another layout.
Molecule	Mtb hypoxia inh	Mtb hypoxia inh growth	BJeLR viability	Bead autofluor	ugtP null kill	RN4220 kill	PrP UTR inh
CCOC(=O)c1cccc(NC(=O)Cn2cnc3c2c(=O)n(C)c(=O)n3C)c1	5	11	8	20236*	3	2.8	-17
COc1cccc(COC(=O)C2CCN(S(=O)(=O)c3ccc(Cl)cc3)CC2)c1OC	4	8	4	?	15	-5.1	-23
Clc1cccc(Cl)c1NC1=NCCN1	0	3	1	.	-7	0.6	.
N#CCC(=O)N1CC2(CC(c3cccc(NC(=O)COc4ccc(Cl)cc4)c3)=NO2)C[C@@H]1C(N)=O (some centres not stated)	.	.	-7	3749	.	.	-4
Cc1cccc(OCC(=O)NC(C)C(=O)NN=Cc2c(OCc3ccccc3)ccc3ccccc23)c1 (configuration not stated)	4	3	.	.	-2	-3.7	.
CCN1CCN(c2ccc(NC(=O)C(C)C)cc2Cl)CC1	-6	4	-1	2355	-5	0.1	-5

# (further entries)
SMILES,Mtb hypoxia inh,Mtb hypoxia inh growth,BJeLR viability,Bead autofluor,ugtP null kill,RN4220 kill,PrP UTR inh
COc1ccc(-c2ncn(CCC#N)c2[N+](=O)[O-])cc1,.,.,-9,2570,8,-2.5,-16
COc1ccc2nc(NC(=O)C3CCN(C(=O)c4ccco4)CC3)sc2c1,10,3,-4,3978,-6,1.8,-31
O=C(/C=C/c1ccco1)NCC(=O)NN=Cc1ccccc1[N+](=O)[O-],-13,-3,.,.,2,-0.2,.
O=C(CN1CCN(S(=O)(=O)c2ccc(Cl)cc2)CC1)NC1CCCC1,2,2,-5,?,-5,-6.1,5
Cn1c(C(=O)NC2CCCCC2)cc2c(=O)n3ccccc3nc21,4,6,12,4918,1,0.2,-17
COc1ccc(-c2nnc(SC(C(=O)c3c[nH]c4ccccc34)c3ccccc3)n2N)cc1OC (configuration not stated),0,5,-6,9614,-7,3.5,-16
Cc1cc(N)n(-c2ccc([N+](=O)[O-])cc2)n1,4,-4,-17,3764,1,3.0,13
O=C(N/N=C/c1ccc(F)c(F)c1)c1cc2c(s1)-c1ccccc1CC2,.,.,0,2742,.,.,-26
O=C(O)CCCc1ccc(N(CCCl)CCCl)cc1,3,7,-10,5203,-3,2.0,-1

# Taken from above.
# O=C(CN1CCN(S(=O)(=O)c2ccc(Cl)cc2)CC1)NC1CCCC1 in ugtP null kill = -5
# O=C(O)CCCc1ccc(N(CCCl)CCCl)cc1 in Mtb hypoxia inh = 3
